BJeLR lethal – kills HRASV12-expressing BJeLR cells. BJeLR (HRASV12) viability, CellTiter-Glo ATP luminescence, 48 h; reference of the scale not given here. inhibition, % (test concentration not listed). 300,000 compounds, 0.17% hits. AID 1554;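 active = replicate mean above 50%; inconclusive = above 50% but judged a plate artefact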;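 note: 50 nL library stock added to about 25 µL; numbers are from one replicate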
Autofluor counter – counter-screen for toxin protease inhibitors: compound fluorescence. compound autofluorescence counterscreen, microsphere flow cytometry; stronger effect = higher value. fluorescence intensity (no concentration beside the values). 360,000 compounds, 3.1% hits;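 active = at least 3 SD above the mean of all compounds, about 16000 in these data; inconclusive = too few beads counted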;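 note: 100 nL of 1 mM stock went into each well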
ugtP null kill – growth inhibition of S. aureus ugtP deletion strain. growth inhibition, % (test concentration not listed). 330,000 compounds, 0.54% hits. S. aureus RN4220 ugtP deletion, OD600 growth, 16 h; some inactives read as strong as hits;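 active = z-score under -3 and OD600 up to 0.15 on both plates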;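 note: plate controls were untreated wells for no effect and antibiotic for full effect; wells of about 80 µL received 100 nL stock; the first replicate is given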
Mtb hypoxia inh – Mtb hypoxia fluorescent reporter inhibition | 300,000 compounds, 0.1% hits | fluorescence inhibition, % (no concentration beside the values) | M. tuberculosis hypoxia-regulated fluorescent reporter, fluorescence;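 active = 35 to 45% if threefold the growth effect, above 45% if 1.5-fold the growth effect; inactive = the rest, general growth blockers included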;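 note: wells of about 50 µL received 100 nL stock; 0% = vehicle wells and 100% = reference inhibitor wells; whole bacteria with a GFP reporter of the hypoxia response; strong numbers were not always called active; many hits fall short of the cut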
PrP UTR inh – inhibition of PrP 5' UTR reporter expression | cell-based PrP 5' UTR mRNA reporter, plate reader | inhibition, % (concentration not given with the values) | 340,000 compounds, 0.35% hits | AID 488862;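 active = every replicate at 50% or more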;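 note: 0 = median of the neutral control wells; tested in H4 reporter cells; numbers are from one replicate; inactives centre near -14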
RN4220 kill – kills Staphylococcus aureus RN4220. S. aureus RN4220 growth, OD600, 16 h. inhibition, % (no concentration beside the values). 330,000 compounds, 0.33% hits. AID 1259311;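 active = z-score of -3 or lower and OD600 up to 0.18 on both plates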;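 note: plate controls were untreated cells for no effect and reference antibiotic for full effect; stock transfer was 100 nL into about 80 µL; one replicate is shown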
Mtb hypoxia inh growth – second read-out of Mtb hypoxia inh, no call of its own (marks repeat the call); growth inhibition, %; measured here: M. tuberculosis growth (absorbance);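 0% = vehicle and 100% = reference antibiotic; read after six days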
Active calls of the source: *; ? = inconclusive; . = no result given.

mol,BJeLR lethal,Autofluor counter,ugtP null kill,Mtb hypoxia inh,Mtb hypoxia inh growth,PrP UTR inh,RN4220 kill
O=C(NNc1nc2cc3c(cc2s1)OCO3)c1ccc(F)cc1,6,3991,1,2,-4,41,3.1
Cc1cc(NS(=O)(=O)c2ccc(NC(=O)/C=C/c3ccc(C)o3)cc2)nc(C)n1,10,4464,-1,8,0,-4,5.7
Cc1ccccc1C(=O)c1cccn1CC(=O)N1CCCCCC1,-2,.,-4,2,8,0,2.6
CCc1cccc(C)c1NC(=O)CSc1nnc(CCCOc2ccc(Cl)cc2Cl)n1C,8,2562,-24,-5,1,-4,-2.2
CCN(Cc1ccccc1)S(=O)(=O)c1ccc(C(=O)N(CCCN(C)C)c2nc3ccc(F)cc3s2)cc1,2,6567,-17,4,13,6,-4.6
CN1CCN(C(=O)C2=C[C@@H](c3ccc(C(F)(F)F)cc3)C[C@@H](OCCCCO)O2)CC1,15,3876,.,.,.,-12,.
Cc1cccc(NC(=O)Cc2noc3ccccc23)c1C,-3,7326,-8,-2,-18,-9,0.1
O=C(O)CC/C(=N\NC(=O)c1ccncc1)c1ccccc1,-7,3732,.,.,.,-23,.
Cc1ccc(C(=O)Nc2ccc(C(=O)NN=Cc3ccc(C)o3)cc2)cc1,.,.,-5,5,-4,.,3.5
CCOC(=O)c1ccc(Oc2ccc(C(F)(F)F)cn2)cc1,-9,2422,2,2,0,-31,1.4
COc1cccc(NC(=O)N2CCCC2C(=O)NC2CC2)c1 (stereo unspecified),5,?,.,.,.,-4,.
O=C(Cn1nc(Cc2cccnc2)c2ccccc2c1=O)Nc1cccnc1Cl,8,2627,-3,-9,-3,-5,-2.3
CCCc1nc(SCC(=O)NCC2CCCO2)c2c(=O)n(C)c(=O)n(C)c2n1 (stereo unspecified),-4,5580,4,9,1,-2,2.0
CCS(=O)(=O)c1nc(S(=O)(=O)c2ccc(Cl)cc2)c(NCc2ccccn2)s1,1,4605,2,-1,22,-42,5.5
CCN(CC)C(=O)CSc1nc(O)c(Cc2ccc(OC)cc2)c(=O)[nH]1,-3,3118,2,15,3,-27,1.9

The list goes on, starting with the last 2 of the part before.
mol,BJeLR lethal,Autofluor counter,ugtP null kill,Mtb hypoxia inh,Mtb hypoxia inh growth,PrP UTR inh,RN4220 kill
CCS(=O)(=O)c1nc(S(=O)(=O)c2ccc(Cl)cc2)c(NCc2ccccn2)s1,1,4605,2,-1,22,-42,5.5
CCN(CC)C(=O)CSc1nc(O)c(Cc2ccc(OC)cc2)c(=O)[nH]1,-3,3118,2,15,3,-27,1.9
CCCC(C)c1nc(C(N)=O)c2[nH]c(=O)n(-c3ccc(OC)c(OC)c3)c2n1 (stereo unspecified),-23,4686,-4,-10,-6,8,7.7
O=c1cc(O)c2sc(Nc3ccc(F)cc3)nc2[nH]1,9,2554,.,.,.,-18,.
CC(=O)Nc1ccc(NC(=O)CSc2nnnn2-c2ccc(F)cc2)cc1,-4,3701,11,4,8,-5,2.3
CNC(=O)Nc1nnc(C(C)(C)C)s1,-2,3179,5,.,.,-17,2.8
CCOC(=O)c1ccc(S(=O)(=O)NCCNCc2ccccc2)cc1,.,2868,12,4,0,-15,3.8
C=CCCCCCCCCC(=O)Nc1c[nH]c(=O)[nH]c1=O,1,4510,4,-2,-16,21,1.4
O=C(NCCNC(=O)Oc1cccc2ccccc12)Oc1cccc2ccccc12,.,3789,1,2,10,4,4.9
CCN(CC)CC(=O)Nc1ccc([N+](=O)[O-])cc1,8,5521,3,5,8,-14,3.2
CC(C)C(NC(=O)c1ccc(C(C)(C)C)cc1)C(=O)NCCc1ccccn1 (stereo unspecified),-1,4470,4,10,13,-28,10
CC(C)C(=O)Nc1ccc(-c2csc(-c3ccccc3)n2)cc1,4,9012,-13,3,7,-130,3.5
COc1ccccc1/C=C/C(=O)NCC(=O)N/N=C/c1cccnc1,0,2752,.,.,.,-18,.
CC(=O)c1cccc(CN2CCN(Cc3ccccc3)C(CCO)C2)c1 (stereo unspecified),-26,4434,-5,-7,2,-19,2.3
Cc1nn(-c2ccccc2)c2c1C(=O)N(c1ccccc1)C(=O)C(C)(C)C2,-9,6127,-3,.,.,0,-1.6
COc1ccc(CN2C(=O)c3cccc4cccc2c34)cc1F,-8,3862,12,-9,-2,-14,-1.1
O=C(O)c1cccc(S(=O)(=O)Nc2ccc(N3CCCCC3)cc2)c1,.,3362,14,7,21,-27,1.8
CCc1ccc(C2(O)CC(C(F)(F)F)=NN2C(=O)Cc2ccc([N+](=O)[O-])cc2)cc1 (stereo unspecified),4,4042,-2,17,6,-5,16
CC(NC(N)=O)C(=O)OCC(=O)c1ccc(-c2ccccc2)cc1 (stereo unspecified),5,4691,5,8,8,-32,11
CN1C(=O)N(C)C(=O)C2(Cc3cc(NC(=O)c4ccccc4Cl)ccc3N3CCCC32)C1=O (stereo unspecified),10,5131,2,0,-4,-22,2.8
COc1cc(C(=S)N2CCCCC2)ccc1O,.,7223,11,7,5,-26,2.8
CC1(C)CC(=O)C=C(NCCN2CCNCC2)C1,-12,.,-1,19,3,.,2.3
CNc1oc(-c2ccc(Cl)cc2)nc1P(=O)(c1ccccc1)c1ccccc1,-6,4594,0,17,12,-8,2.8
COc1ccc(C2N=C(c3ccccc3)C(C)(C)N2O)cc1OC (stereo unspecified),1,11211,8,-1,-9,-25,4.3
O=C(c1cccc2cccc(O)c12)N1CCCCC1,7,3179,-3,.,.,-9,0.6
COc1ccc(C(=O)NCC(=O)O)cc1,3,17003*,3,1,-8,-7,1.4
Cc1ccc(S(=O)(=O)Nc2ccc3c(c2)nc(CCN2CCCC2)n3C)cc1,2,6322,8,9,4,-16,4.2
Cc1nn(-c2ccccc2)c(C)c1C=NNC(=O)c1cc(-c2cccs2)[nH]n1,.,.,-12,2,4,.,8.8
CCOc1ccc(CC(=O)Nc2nccs2)cc1,-5,4434,1,0,12,1,0.1
O=C(N/N=C/c1cccs1)c1n[nH]c2c1CCC2,27,2446,.,.,.,-27,.
O=C(COC(=O)c1cc(S(=O)(=O)Nc2ccccc2Cl)ccc1O)Nc1nc2ccccc2s1,.,4312,-1,4,-4,-45,5.3
CCc1ccccc1NC(=O)CSc1ncn[nH]1,5,10653,4,6,5,-20,6.4
NNc1ccc2nncn2n1,-2,5873,5,2,-4,-16,1.1
O=C(CSc1ncn[nH]1)Nc1ccccc1Sc1ccccc1,-5,23235*,8,7,3,0,4.2
Cc1ccc(S(=O)(=O)NNC(=O)c2cnn(-c3ccccc3)c2-n2cccc2)cc1,-6,9127,1,1,-1,-28,6.1
COc1ccc(NC2=NC(=S)N(c3ccccc3C)C23CCCCC3)cc1,-1,3760,-15,-4,1,-14,5.6
Oc1[nH]c2ccccc2c1N=Nc1ccccc1,4,4650,-2,-5,10,-37,0.8
COc1ccc(C(C(N)=O)c2ncc(C(F)(F)F)cc2Cl)cc1 (stereo unspecified),0,2215,2,13,9,-29,-0.4
Cc1ccc2nc(SCC(=O)NCc3ccc4c(c3)OCO4)nc(=O)n2c1,-6,5641,-4,1,-3,-24,0.6
Nc1nc2nc(-c3ccc(OCc4ccccc4)cc3)cc(C(F)(F)F)n2n1,-5,4201,14,3,2,-14,11
CCNC(=O)CC1C(=O)N(c2ccc(C)cc2)C(=O)N1CCOC (stereo unspecified),-9,3534,19,7,7,-13,0.2
CCC1Oc2ccc(C)cc2N(CC(=O)N(Cc2cccnc2)Cc2ccc(C)o2)C1=O (stereo unspecified),-8,8171,-4,-5,2,-14,2.8
COc1ccc(-c2cn[nH]c2C)cc1OC,5,3292,3,-3,-1,-2,-0.6
Cc1nc2scc(C)n2c(=O)c1S(=O)(=O)Nc1ccc(N2CCN(S(C)(=O)=O)CC2)cc1,-3,5484,0,2,0,-29,1.5
COCc1c(Br)c(C)nc(OCC(=O)NN=Cc2ccc(C)o2)c1C#N,.,.,3,18,9,.,0.7
CCNC(=S)NS(=O)(=O)c1ccc(F)cc1,-2,2493,2,0,3,-9,2.9
COc1cc2[nH]c(=S)nc(NCc3ccccc3)c2cc1OC,4,3984,-6,-2,1,-7,4.0
O=C(O)CCc1ccc(-c2ccccc2)n1-c1cccc(C(=O)O)c1,5,4080,1,4,-5,-21,1.8
CCOc1c(Br)cc(C(N)=O)cc1OCc1ccccc1,-8,2607,45,2,6,-18,0.4
Cc1ccc(S(=O)(=O)N(C)S(=O)(=O)c2ccc(C)cc2)cc1,3,3255,8,16,19,0,2.8
O=C(NC1CCCCC1)C(c1ccccc1)N1CCOCC1 (stereo unspecified),-1,2390,-4,.,.,-24,-4.0
CN(C(=O)COC(=O)c1nc(Cl)c(Cl)c(Cl)c1Cl)C1CCS(=O)(=O)C1 (stereo unspecified),1,4645,-13,8,5,6,0.3
Cc1cc2nc(N)sc2cc1[N+](=O)[O-],-4,10231,-4,-8,3,-20,-4.3
Cc1nn(C)c(C)c1C(C)NC(=O)c1ccc(OC2CCN(Cc3ccccn3)CC2)cc1 (stereo unspecified),0,4672,0,-2,-3,-9,-3.0
COc1ccc(NC(=O)c2cc(C(C)C)on2)c(OC)c1,5,4935,12,7,8,-86,1.9
O=C(Nc1ccc(OCc2ccccc2)cc1)Nc1cccnc1,-2,3195,-5,8,4,8,-1.5
O=C1CCCN1CCCN1CC(C(=O)N(CCO)Cc2ccccc2)CCC1=O (stereo unspecified),-7,5832,6,3,1,6,0.7
COc1cc(C(=S)N2CCCC2)ccc1OS(=O)(=O)c1ccc(NC(C)=O)cc1,9,2017,-1,-2,-1,-10,12
Cc1cc(C(=O)NCCN2CCOCC2)ccc1[N+](=O)[O-],0,4716,10,13,11,3,4.4
COc1cccc(NC(=O)CN(C)C(=O)CSc2nc(C)cc(C)n2)c1,.,3805,3,-7,-6,1,-1.6
CN1C(=O)CC(N2CCC(C(N)=O)(N3CCCCC3)CC2)C1=O (stereo unspecified),-2,10991,-4,0,15,-19,-3.0
BrC(=C\c1ccccc1)/C=N/Nc1ccc2nncn2n1,2,4136,.,.,.,-25,.
COCCNc1nc(N)c([N+](=O)[O-])c(NCc2ccccc2)n1,-4,4058,3,-3,11,-7,0.3
O=C(NNC(=O)c1ccc(Br)s1)NC1CCCCC1,-3,5485,4,3,11,-34,-2.9
C[C@H](NC(=O)N1CCn2c1nc1ccccc12)C(=O)NC1CC1,5,6011,2,6,3,-17,1.5
